High-throughput results deposited in PubChem BioAssay by several laboratories.
RecA splice inh: inhibitors of M. tuberculosis RecA intein splicing | P9WHJ3 | cell-free RecA intein splicing, fluorescence | inhibition, %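 (about 9 µM by stock and volumes)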 | 290,000 compounds, 0.75% hits; in the data active = inhibition above about 30%; inconclusive = no clear call, values can overlap the other calls;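 note: 0% = vehicle wells and 100% = reference inhibitor control wells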
Target sequence (P9WHJ3 whole entry, looked up, canonical isoform): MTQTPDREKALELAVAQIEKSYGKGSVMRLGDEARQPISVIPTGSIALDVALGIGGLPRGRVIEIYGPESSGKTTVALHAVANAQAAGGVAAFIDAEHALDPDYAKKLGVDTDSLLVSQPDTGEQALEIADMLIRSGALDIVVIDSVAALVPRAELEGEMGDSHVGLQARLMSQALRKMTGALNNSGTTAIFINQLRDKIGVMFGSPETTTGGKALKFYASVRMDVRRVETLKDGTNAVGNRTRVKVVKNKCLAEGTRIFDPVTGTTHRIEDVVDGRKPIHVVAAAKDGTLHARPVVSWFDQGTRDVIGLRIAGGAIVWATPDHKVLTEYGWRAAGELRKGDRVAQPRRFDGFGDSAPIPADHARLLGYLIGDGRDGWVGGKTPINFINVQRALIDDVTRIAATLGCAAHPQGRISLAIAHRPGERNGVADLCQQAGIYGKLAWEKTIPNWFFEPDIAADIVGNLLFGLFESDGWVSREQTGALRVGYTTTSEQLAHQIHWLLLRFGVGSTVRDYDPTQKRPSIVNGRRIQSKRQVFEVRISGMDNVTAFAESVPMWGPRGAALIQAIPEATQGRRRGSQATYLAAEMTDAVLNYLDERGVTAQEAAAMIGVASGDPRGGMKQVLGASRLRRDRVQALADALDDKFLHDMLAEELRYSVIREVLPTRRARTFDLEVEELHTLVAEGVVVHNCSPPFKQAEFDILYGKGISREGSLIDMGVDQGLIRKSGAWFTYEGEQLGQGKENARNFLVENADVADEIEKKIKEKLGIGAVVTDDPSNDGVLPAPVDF
Arbovirus inh: antivirals against arbovirus infection; 200,000 compounds, 0.37% hits; inhibition, % at 10 µM; AID 1251; arbovirus infection cell-based antiviral screen;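 active = inhibition from about 30%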;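 note: bluetongue infection of BSR cells; cell survival read as ATP light after 72 h; 0% = infected wells without compound and 100% = uninfected wells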
Mtb growth: M. tuberculosis H37Rv growth inhibitors, H37Rv strain (AID 1626); inhibition, % at 10 µM, or IC50 in µM where a hit was titrated; 220,000 compounds, 0.95% hits; M. tuberculosis H37Rv growth inhibition; higher % means a stronger effect;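 active = confirmed in a dose series; inconclusive = inhibition above 80% but not taken into the dose series; inactive = below 80% or under 30% at every dose of the series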;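 note: bacteria incubated seven days before Alamar blue readout; 0% = bacteria only wells and 100% = bacteria with antibiotic wells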
Mtb betalactam: beta-lactam sensitization of Mtb H37Rv. M. tuberculosis H37Rv growth with meropenem, percent inhibition; hits of this screen are not shown here. inhibition, % at 25 µM. 330,000 compounds, 0.27% hits. AID 434955;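 active = about 74% or more and at least 40 points above the plate without the antibiotic, then above 30% in a dose series; inconclusive = first-round hits that could not be retested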;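 note: growth measured after seven days incubation then overnight dye step; 0% = bacteria only wells and 100% = bacteria with antibiotic; twin plates without the antibiotic show which effects depend on it; some results filed as inactive read as strong as hits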
YopH inh: inhibitors of Yersinia enterocolitica YopH tyrosine phosphatase. fluorescence Ex485/Em525. inhibition, %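 (about 10 µM by stock and volumes)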. 140,000 compounds, 0.16% hits. AID 898;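 active = inhibition of 50% or more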;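 note: controls were vehicle for no effect and minimum signal wells for full effect; inactives centre near -20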
Arbovirus inh repeat: second read-out of Arbovirus inh, no call of its own (marks repeat the call); inhibition, %; measured here: 10K subset replicate screen; many hits read low in the repeat;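 first of two repeat runs on a subset; 0% = infected and 100% = uninfected wells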
Numbers without * were called inactive; ? = inconclusive; . = not tested or not shown; & = joins results of further samples. These rows are one share of the data. The share of hits here may be higher or lower than overall.

SMILES	RecA splice inh	Arbovirus inh	Mtb growth	Mtb betalactam	YopH inh	others
CC1=C(C(=O)Nc2ccc(C)cc2)C(c2cccs2)NC(=S)N1 (stereo unspecified)	-0.5	0	0%	1	-13
O=C(CSc1nnc2ccccn12)Nc1cccc(-c2nc3ccccc3s2)c1	2.8	-17	8%	1	-26
COC(=O)CCNC(=O)c1nn(Cc2ccccc2)c(=O)c2ccccc12	1.1	.	.	-8	.
O=Cc1cnc(N2CCOCC2)nc1	-0.5	6	5%	7	-2
CCC(CC)c1nnc(NC(=O)CCCN2C(=O)c3ccccc3C2=O)s1	-0.4	12	-7%	4	8
CCCc1ccc(OCc2ccc(C(=O)OC)o2)c(OC)c1	5.6	1	-2%	17	-59
CCOc1ccccc1N1CCN(C(=O)c2ccc(NS(=O)(=O)c3ccc4[nH]c(=O)[nH]c4c3)cc2)CC1	1.9	.	.	-13	.
CCn1cc([N+](=O)[O-])c(C(=O)N2N=C(c3cccc4ccccc34)CC2c2ccccc2O)n1 (stereo unspecified)	22	-36	13%	37	-21
O=C1Nc2ccccc2C1(O)Cc1ccccn1 (stereo unspecified)	0.3	.	7%	1	.
COc1ccc(CC(=O)NC(C)c2nnc(SCC(=O)c3ccc(Br)cc3)n2C)cc1 (stereo unspecified)	4.2	-17	-2%	-16	-22
NC(=O)C1CCN(CCC(=O)Nc2ccc3c(c2)CCC3)CC1	-0.1	5	-11%	-9	7
CCOc1ccc(NC(=O)NCc2ccccn2)cc1	0.8	.	.	-4	.
Cc1csc(NC(=O)c2cnccn2)n1	-4.7	6	-4%	-8	-19
O=C(O)c1ccc(COc2ccccc2/C=C2\NC(=O)N(Cc3ccccc3F)C2=O)cc1	2.3	-4	-3%	-2	.
O=C(COC(=O)CNC(=O)C12CC3CC(CC(C3)C1)C2)NC1CCS(=O)(=O)C1 (stereo unspecified)	0.2	-6	4%	11	-12
Cc1ccc(NC(=S)N2CCN(C3CCCCC3)CC2)cc1	1.0	6	1%	1	-52
CCCn1c(=O)c2sccc2n2c(CCCC(=O)NCc3cccnc3)nnc12	-2.9	.	.	-2	.
CSCC[C@H](NC(=O)Nc1ccc(Oc2ccccc2)cc1)C(=O)O	0.8	.	8%	-1	.
COc1cccc(C2/C(=C(/O)c3cnn(-c4ccccc4)c3C)C(=O)C(=O)N2CCN(C)C)c1OC (stereo unspecified)	-2.9	-2	-5%	9	-48
Cc1ccccc1CN(CC(=O)Nc1cccc([N+](=O)[O-])c1)S(=O)(=O)c1ccc(Cl)cc1	1.1	-13	2%	-4	18
CCC(=O)CCC(=O)c1ccc2ccccc2c1	-0.8	-1	14%	9	-25
CNC(=O)CSc1nc2sccc2c(=O)n1-c1ccccc1	1.0	.	.	-1	.
O=C(OCc1ccc([N+](=O)[O-])cc1)C1CC(=O)N(CCc2ccccc2)C1 (stereo unspecified)	1.4	.	.	33	.
N#Cc1c(SCC(=O)O)nc(-c2ccccc2)c2c1CCCC2	-1.3	-4	-10%	1	-36
CSc1ccccc1C(=O)NCCOc1ccccc1C	2.0	-5	13%	4	.

The list continues.
SMILES	RecA splice inh	Arbovirus inh	Mtb growth	Mtb betalactam	YopH inh	others
CCN(CC)CCOC(=O)c1ccc(NC(=O)CNC(=O)C2CCCCC2)cc1	-1.9	-11	-4%	-1	-22
CN(C)C(=O)c1ccc(Nc2nc(-c3cccs3)nc3ccccc23)cc1	-1.3	.	.	-3	.
CCCC(=O)NC(c1ccccc1Cl)c1c(O)ccc2ccccc12 (stereo unspecified)	-1.7	6	3%	?	4
Cc1ccc2nc(/C(C#N)=C/c3ccc(-c4ccccc4C(=O)O)o3)[nH]c2c1	-2.0	.	.	-3	.
CN(C)CCCN(Cc1ccc2c(c1)OCO2)C(=O)NC1CCCCC1	-3.3	.	2%	3	.
NC(=O)NOCc1c(F)cccc1Cl	.	3	6%	-4	.
CNCC[C@H](Oc1cccc2ccccc12)c1cccs1	1.1&2.3	-22	-5%&-4%&5%	-3&5	.
Cc1oc(/C=N/NS(=O)(=O)c2ccccc2)cc1Br	1.1	3	4%	-4	-9
CCOc1ccc(CNCCc2ccc3c(c2)OCO3)cc1	1.3	.	.	8	.
Cc1c(C(=O)Nc2ccc(S(=O)(=O)Nc3ncccn3)cc2)oc2ccc(Cl)cc12	0.0	.	.	-12	.
Nc1ccc2nn(-c3cc([N+](=O)[O-])ccc3O)nc2c1	8.6	.	.	5	.
COC(=O)Cc1[nH]c(Cl)nc1C(N)=O	1.9	.	-13%	-4	.
CC(=O)c1cccc(NC(=O)N2CC(C)OC(C)C2)c1 (stereo unspecified)	2.2	.	.	1	.
O=C(Nc1nnc(SCc2cccc3ccccc23)s1)C1COc2ccccc2O1 (stereo unspecified)	2.3	20	-7%	2	-26
O=C(CSc1nnc(-c2cccnc2)o1)Nc1ccccn1	-0.6	0	20%	-15	33
O=C(C1CC(c2ccccc2O)=NO1)N1CCC2(CC1)OCCO2 (stereo unspecified)	1.3	4	0%	-14	-14
Cc1ccc(Nc2nc(Cl)nc(NC3CCCCC3)n2)cc1	0.7	.	.	8	.
Cc1cccc(-n2cc(CN3CCCN(C=O)CC3)c(-c3cccc(F)c3)n2)c1	2.7	-17	17%	2	.
CCn1c(=O)cc(SCC(=O)Nc2ccc3c(c2)OCO3)c2ccccc21	-0.9	-17	3%	3	-20
CSc1nnc(Cn2c(=O)sc3ccccc32)n1CCc1ccccc1	3.5	1	-2%	1	-53	Arbovirus inh repeat=-3
Cc1cccc(CCNC(=O)CCc2nc(-c3ccccc3F)no2)c1	.	2	-6%	-14	-7
CC1CCN(CCC(=O)Nc2ccc(Cl)cc2)CC1	-0.2	4	-4%	-6	.
COc1cc(O)c(C(C)=O)c(CC(=O)O)c1	-3.2	.	-8%	-9	.
COc1ccccc1NC(=O)c1c(N=Cc2cccc([N+](=O)[O-])c2)cnn1C	-0.4	.	-5%	1	.
CCOc1ccc(C(O)c2nccn2C)cc1 (stereo unspecified)	1.1	0	1%	-5	-32

Among those listed so far, 2 have bromine:
SMILES	RecA splice inh	Arbovirus inh	Mtb growth	Mtb betalactam	YopH inh	others
COc1ccc(CC(=O)NC(C)c2nnc(SCC(=O)c3ccc(Br)cc3)n2C)cc1 (stereo unspecified)	4.2	-17	-2%	-16	-22
Cc1oc(/C=N/NS(=O)(=O)c2ccccc2)cc1Br	1.1	3	4%	-4	-9

By substructure: the entries above with two or more sulfur atoms (5)
SMILES	RecA splice inh	Arbovirus inh	Mtb growth	Mtb betalactam	YopH inh	others
CC1=C(C(=O)Nc2ccc(C)cc2)C(c2cccs2)NC(=S)N1 (stereo unspecified)	-0.5	0	0%	1	-13
O=C(CSc1nnc2ccccn12)Nc1cccc(-c2nc3ccccc3s2)c1	2.8	-17	8%	1	-26
CNC(=O)CSc1nc2sccc2c(=O)n1-c1ccccc1	1.0	.	.	-1	.
O=C(Nc1nnc(SCc2cccc3ccccc23)s1)C1COc2ccccc2O1 (stereo unspecified)	2.3	20	-7%	2	-26
CSc1nnc(Cn2c(=O)sc3ccccc32)n1CCc1ccccc1	3.5	1	-2%	1	-53	Arbovirus inh repeat=-3

(continued)
SMILES	RecA splice inh	Arbovirus inh	Mtb growth	Mtb betalactam	YopH inh	others
COc1ccc(C(=O)N/C(=C/c2cccs2)C(=O)NC(C)(C)C)cc1OC	0.9	5	-5%	10	.
COc1cccc(-c2noc(N)c2C#N)c1	0.4	5	3%	-5	-32
CCCCCC1(C(=O)OCC)CC(CSC(=N)N)OC1=O (stereo unspecified)	0.4	-4	-11%	5	.
Cc1noc(NS(=O)(=O)c2ccc(NC(=O)Nc3ccc(Cl)c(Cl)c3)cc2)c1C	20	28	6%	-7	-10
O=C(NCc1ccc(F)cc1)C(=O)NCC1OCCN1C(=O)c1ccc(Cl)cc1 (stereo unspecified)	-0.2	-1	-8%	-4	-9
O=C(Cn1nc(-c2ccccc2)ccc1=O)N1CCC2(CC1)OCCO2	-1.5	3	-5%	3	.
CCOC(=O)C1CCN(c2c(NCCCN(C)C3CCCCC3)c(=O)c2=O)CC1	0.7	1	8%	-1	-9
Cc1nnc(NC(=O)c2cccc(NC(=O)C(C)C)c2)s1	-0.9	7	-4%	-5	-24
CN(C)c1cccc(NC(=O)c2ccco2)c1	-0.1	-6	-8%	0	.
NC(=O)c1nsc(C(=O)N(c2cccc(F)c2)C(C(=O)NC2CCCC2)c2ccco2)c1N (stereo unspecified)	-1.5	.	.	10	.
O=C(CSc1nc(O)c(Cc2ccccc2)c(=O)[nH]1)Nc1ccccc1	0.7	3	-3%	8	-7
CCOC(=O)c1cccc(NC(=O)N2CCOCC2)c1	3.5	1	-8%	0	.
Cc1cccc(N2CCN(C(=O)c3ccc(N4CCCC4=O)cc3)CC2C)c1 (stereo unspecified)	-12	6	-3%	0	-32
COc1ccc(NC(=S)NNc2ccc(C(=O)O)cc2)cc1	5.3	.	.	11	.
CCCN1C(=O)CN(C2CCCCCC2)C(=O)C1c1ccc(C)cc1 (stereo unspecified)	1.9	4	-4%	-6	-41
C=CCOc1ccc2ccccc2c1CNn1c(C)n[nH]c1=S	-0.3	.	.	-9	.
O=C(NC(=S)NCC1CCCO1)c1ccco1 (stereo unspecified)	-0.7	0	5%	-15	.
COC(=O)C(=CC(=CN(C)C)C=C(C(=O)OC)C(=O)OC)C(=O)OC	-2.0	.	-10%	-9	.
O=C(CNC(=O)c1ccccc1F)NCCc1ccc(Cl)cc1Cl	3.1	.	.	-3	.
CCN(c1ccccc1)S(=O)(=O)c1ccc(NC(=S)NC(=O)c2ccc(Br)o2)cc1	-3.3	11	6%	5	-25
CC(NC(=O)CSc1n[nH]c(=O)[nH]c1=O)C1CC2CCC1C2 (stereo unspecified)	-0.7	.	-10%	0	.
Cc1cc2c(c(SCC(=O)NCc3ccc(Cl)cc3)n1)C(=O)OC2	-1.5	-1	-6%	-3	.
COC(=O)C1=C(C(=O)OC)SC(=C2C(=S)C(C)(C)N(C(=O)C(C)C)c3ccccc32)S1	.	-9	-1%	-3	-17
CC1(C)CNC(=O)c2sc(N3CCOCC3)nc2C1	-2.0	4	8%	-9	-54
O=C(O)c1ccccc1Nc1ccnc(Cl)n1	-1.2	.	.	-1	.

2 records drawn at random from the list so far, as already listed:
SMILES	RecA splice inh	Arbovirus inh	Mtb growth	Mtb betalactam	YopH inh	others
CCOc1ccc(C(O)c2nccn2C)cc1 (stereo unspecified)	1.1	0	1%	-5	-32
COC(=O)Cc1[nH]c(Cl)nc1C(N)=O	1.9	.	-13%	-4	.

Returning to the listing, starting 4 compounds before the break.
SMILES	RecA splice inh	Arbovirus inh	Mtb growth	Mtb betalactam	YopH inh	others
Cc1cc2c(c(SCC(=O)NCc3ccc(Cl)cc3)n1)C(=O)OC2	-1.5	-1	-6%	-3	.
COC(=O)C1=C(C(=O)OC)SC(=C2C(=S)C(C)(C)N(C(=O)C(C)C)c3ccccc32)S1	.	-9	-1%	-3	-17
CC1(C)CNC(=O)c2sc(N3CCOCC3)nc2C1	-2.0	4	8%	-9	-54
O=C(O)c1ccccc1Nc1ccnc(Cl)n1	-1.2	.	.	-1	.
Cc1ccnc(SCCn2c(N(C)Cc3ccccc3)nc3c2c(=O)n(C)c(=O)n3C)n1	3.3	5	0%	-2	-12	Arbovirus inh repeat=2
COC(=O)c1ccccc1NC(=S)NC(=O)c1ccccc1C	.	9	.	2	-32
COc1cc2c(cc1OC)-c1cc(Nc3cccc(C)c3)nc(=O)n1CC2	-3.7	.	.	-5	.
COc1ccccc1CNC(=O)Cn1cnc2ccccc2c1=O	-4.2	8	-6%	-6	-28
CC(=O)c1ccc([N+](=O)[O-])c(CS(=O)(=O)c2ccc(Cl)cc2)c1	2.1	.	.	-8	.
COc1ccc(NC(=O)Cn2nnc(C(=O)Nc3ccc(F)c(Cl)c3)c2N)cc1	-3.9	.	.	-9	.
COc1ccc(-c2nc(-c3ccncc3)no2)cc1OC	-2.4	8	-2%	-14	-31
O=C(COC(=O)CCc1ccc(S(=O)(=O)N2CCOCC2)cc1)NCc1ccccc1Cl	-0.2	-1	-3%	2	.
CCOC(=O)C1(C)Oc2cccnc2NC1=O (stereo unspecified)	1.7	2	1%	-10	.
CCCCNC(=S)N1CCn2cccc2C1c1ccc(F)cc1 (stereo unspecified)	7.0	-6	11%	-5	.
Cc1ccc(NC2=CC(=O)CC(c3ccccc3)C2)cc1 (stereo unspecified)	3.9	-13	3%	0	-16
O=C(NCCCn1ccnc1)/C(=C/c1ccco1)NC(=O)c1ccco1	-2.0	.	-5%	-10	.
